Env fusion inh = inhibitors of HIV-1 Env-driven cell-cell fusion, primary screen, HeLa-JRFL effector, CEM21 target cells, luciferase; inhibition, % at 12.3 µM; 360,000 tested, 1.1% active; AID 651610, 2012;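 active = mean replicate inhibition score of at least 50 and every replicate individually at or above 50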;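 also: 0% = plate neutral controls and 100% = maraviroc near 300 nM; one replicate is shown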
CSC inhib = cancer stem cell viability inhibitors, primary screen, luminescence; cancer stem cell-like cells viability; AID 2717, 2010; inhibition, % at 7.5 µM; 300,000 tested, 1.1% active;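 active = mean at 75% or more and at least half the replicates too; tested in HMLE shEcad cells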;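 also: 0% = median of negative and 100% = median of positive control wells; the first replicate is given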
PABP polyA inh = PABP poly(A) RNA binding inhibitors, primary screen, biochemical, fluorescence polarization, uHTS. Polyadenylate-binding protein 1 (Homo sapiens), P11940. inhibition, % at 35 µM. 290,000 tested, 1% active. AID 2014, 2009;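 active = 50% or more with normal probe brightness, or confirmed in later tests; about a fifth of its hits are not listed in these tables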;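 also: calls also rest on retests at 20 µM and on dose response follow-up; controls were probe without protein and protein plus probe with vehicle; some compounds called inactive have numbers as strong as hits; many hits fall short of the cut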
Target sequence (P11940 whole entry, looked up): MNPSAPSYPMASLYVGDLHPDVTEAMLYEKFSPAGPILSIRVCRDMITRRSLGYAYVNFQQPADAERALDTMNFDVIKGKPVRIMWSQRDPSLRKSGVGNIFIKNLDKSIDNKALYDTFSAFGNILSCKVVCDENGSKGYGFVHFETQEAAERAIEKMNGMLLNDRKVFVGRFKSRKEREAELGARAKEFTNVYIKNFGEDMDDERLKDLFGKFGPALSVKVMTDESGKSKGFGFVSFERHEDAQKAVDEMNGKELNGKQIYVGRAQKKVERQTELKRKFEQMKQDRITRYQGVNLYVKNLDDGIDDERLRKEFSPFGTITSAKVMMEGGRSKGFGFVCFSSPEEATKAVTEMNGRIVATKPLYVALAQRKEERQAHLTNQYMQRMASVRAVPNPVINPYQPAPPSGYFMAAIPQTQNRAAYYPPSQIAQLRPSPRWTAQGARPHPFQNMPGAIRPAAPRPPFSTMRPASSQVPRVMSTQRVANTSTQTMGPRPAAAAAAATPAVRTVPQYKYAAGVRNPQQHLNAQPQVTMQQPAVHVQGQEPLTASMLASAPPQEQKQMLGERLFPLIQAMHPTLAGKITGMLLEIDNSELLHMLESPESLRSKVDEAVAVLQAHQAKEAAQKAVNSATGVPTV
eIF4H inh = human eIF4H binding inhibitors, primary screen, translation initiation inhibitor project, biochemical, uHTS, fluorescence polarization | 290,000 tested, 0.94% active | Eukaryotic translation initiation factor 4H (Homo sapiens), Q15056 | eIF4H fluorescence polarization binding assay | inhibition, % at 35 µM;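 active = 50% or more with normal probe brightness, or confirmed in later tests; about a fifth of its hits are not listed in these tables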;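 also: calls also rest on retests at 20 µM and on dose response follow-up; 0% = protein and probe with vehicle and 100% = probe without protein; strong numbers were not always called active; many hits fall short of the cut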
UUG fidelity = modulators of yeast start codon fidelity, primary screen, whole organism, S. cerevisiae, single point, plate reader; AID 602363, 2012; S. cerevisiae UUG-firefly luciferase reporter, luminescence/redox ratio; activity score, % at 18.7 µM; 350,000 tested, 0.13% active;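 active = replicate mean at a twofold rise or more, about +100% in these data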;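 also: firefly luciferase made from a UUG start codon reports start codon fidelity; reporter light over untreated wells divided by growth signal over untreated wells; some hits fall short of that in this replicate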
Rce1 inh = yeast Rce1p protease inhibitors, primary screen, biochemical, fluorescence, cell-free homogeneous; CAAX prenyl protease 2 (Saccharomyces cerevisiae (strain ATCC 204508 / S288c)), Q03530; yeast membranes, quenched prenylated peptide cleavage fluorescence; calls only; 290,000 tested, 0.27% active;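 active = fall in fluorescence gain of 50% or more versus controls, with final raw signal at or below 3038400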;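 also: plate controls were neutral control wells for no effect and wells lacking membranes for full effect; tested at 10 µM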
Target sequence (Q03530 whole entry, looked up): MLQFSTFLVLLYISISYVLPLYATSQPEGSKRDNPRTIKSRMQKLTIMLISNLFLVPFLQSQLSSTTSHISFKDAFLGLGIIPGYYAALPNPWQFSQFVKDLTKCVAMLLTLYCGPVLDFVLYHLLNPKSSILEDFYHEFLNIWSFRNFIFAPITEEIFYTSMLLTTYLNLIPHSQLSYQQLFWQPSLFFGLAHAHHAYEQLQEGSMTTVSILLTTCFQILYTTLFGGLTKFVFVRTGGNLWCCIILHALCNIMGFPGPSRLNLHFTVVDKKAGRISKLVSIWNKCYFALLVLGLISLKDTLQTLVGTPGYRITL
MT1-MMP act inh = blockers of MT1-MMP proenzyme processing, primary screen, HT1080 RFP-PRO-GFP cells, GFP/RFP fluorescence | Matrix metalloproteinase-14 (Homo sapiens), P50281 | GFP/RFP ratio fluorescence, overnight; percent of plate control window, DMSO zero | GFP/RFP ratio change, % at 20 µM | 360,000 tested, 0.061% active | AID 651647, 2012;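 active = GFP/RFP ratio change of at least 30% with cell ATP level not reduced by more than half and red fluorescence within 50% of control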; also: strong numbers were not always called active
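Assay system: HT1080 RFP-PRO-GFP cells | Dosing: 20 µM single dose, 1% DMSO | Incubation: Cells overnight before dosing, compound overnight, 37 °C, 5% CO2 | Evaluation: GFP/RFP fluorescence ratio | Control set: DMSO-only wells and HT1080 RFP-L50D-GFP cell wells as references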
MT1-MMP act inh RFP = further read-out of MT1-MMP act inh, marked with its call; RFP signal change, %; measured here: RFP expression control read;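 0 = vehicle wells; hits needed this value within 50% of zero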
* = called active by the depositor; i = inactive; x = not tested or not shown; + = active, no number.

Each structure is followed by: Env fusion inh, CSC inhib, PABP polyA inh, eIF4H inh, UUG fidelity, Rce1 inh, MT1-MMP act inh, MT1-MMP act inh RFP
CC1(c2ccc(Cl)cc2)NC(=O)CS1 (stereo not given)
    1, -5, -6, -1, x, i, 1, 4
Cn1c(=O)c2cn(-c3ccc4c(c3)OCCO4)cc2n(C)c1=O
    x, 7, -6, -10, -8, i, 3, 2
CCc1cc(=O)oc2c3c(cc(OCC(=O)NCCCC(=O)O)c12)OC(C)(C)CC3
    0, 6, 7, 3, 7, +, 3, 3
Cc1noc(C)c1NC(=O)Nc1ccc2c(c1)C(=O)N([C@H](C)CO)C[C@H](C)[C@@H](CN(C)C(=O)Nc1ccc3c(c1)OCO3)O2
    -2, x, x, x, -4, x, 0, 3
Cc1nc(C)c(C(=O)NCc2ccccc2Cl)o1
    x, -11, -1, 0, -8, i, -2, -11
CN(C)C(=O)c1c([N+](=O)[O-])c(C(C)(C)C)nn1C
    -3, -8, -15, -11, -9, i, -1, 5
Brc1ccc(NC2=Nc3ccccc3CC2)cc1
    -237, 20, -2, -1, -18, i, -1, -6
O=C(NCCCn1ccnc1)c1cc(Br)c(Br)s1
    14, -15, -11, -3, -11, i, 1, -3
COc1cc(/C=N/Nc2nc(C)cc(=O)[nH]2)ccc1OC(=O)c1cccnc1
    8, -10, 8, -7, -12, x, -3, 2
CC(C)(OC(=O)c1ccc(F)cc1)c1cc2ccccc2c(=O)o1
    -10, -9, x, x, 8, x, 0, 4
COc1ccc(C(C)=O)c(OC(=O)c2ccc(OC)c(OC)c2)c1
    -28, -14, 6, 1, 20, i, 11, 4
CN(C(=O)CN1CCN(c2cc(-c3ccc(-c4ccccc4)cc3)ncn2)CC1)c1ccccc1
    29, x, x, x, -6, x, 4, -24
Cc1nnc2sc(-c3ccc(NC(=O)c4ccc(-c5ccc(Cl)cc5Cl)o4)cc3)nn12
    5, 13, x, x, -17, i, -6, -9
O=Cc1c(NCCCN2CCCC2=O)c2ccccc2[nH]c1=O
    -1, -23, 5, -11, -11, i, 4, 2
O=C(N/N=C/c1cn(-c2ccccc2)nc1-c1cccs1)c1ccncc1
    -10, 14, 5, 2, x, i, 1, -1
C#CCOCCOCCOCCNc1nc(N2CCN(C(=O)CCCCCCCCCCNC(=O)[C@H](CCCCN)n3cc(CCCC(=O)O)nn3)CC2)nc(N2CCN(C(=O)CCCCCCCCCCNC(=O)[C@@H]([C@H](C)O)n3cc(C)nn3)CC2)n1
    x, 28, x, x, -10, x, 2, 2
CS(=O)(=O)NN1C(=O)c2ccccc2NC1c1c[nH]c2ccccc12 (stereo not given)
    3, -3, -2, -1, x, i, -28, 6
CCCS(=O)(=O)NC(=O)C1(C)CCN(C(=O)c2ccc(OC)cc2OC)C1 (stereo not given)
    6, x, x, x, -27, x, -4, -2
O=C(NC(=S)Nc1ccccc1F)C1CCCCC1
    0, -11, -4, -9, -10, x, -1, -1
O=C(Oc1ccc(OC(=O)c2ccco2)c(S(=O)(=O)c2ccc(Br)cc2)c1)c1ccco1
    x, -7, -2, 2, -10, i, 7, 2
O=C(CSc1ncccn1)Nc1ccc2[nH]c(=O)[nH]c2c1
    17, 2, x, x, -9, i, -5, -2
CCOc1ccc(C=NCC(O)c2ccccc2)cc1 (stereo not given)
    6, -2, 4, -3, -2, i, 0, 0
CCn1c(CC(=O)Nc2ccccc2F)nnc1SCC(=O)N1CCN(c2ccccc2)CC1
    x, 3, -2, -3, -15, i, -2, -3
CO/N=C/C1CCN(c2ncc(C(F)(F)F)cc2Cl)C1=O (stereo not given)
    -3, x, 0, 10, x, i, 2, 4
O=C(c1cccc(N2C(=O)C3CC=CCC3C2=O)c1)N1CCN(c2ccccc2)CC1 (stereo not given)
    5, -1, 8, 4, -16, x, -3, 3
O=C(NCCN1CCN(c2ccccc2)CC1)C1CCN(S(=O)(=O)c2cccc3nsnc23)CC1
    -1, -4, 6, 0, x, i, 3, -3
CN(C)C(=O)Cn1c(=O)n(S(=O)(=O)c2ccccc2)c2ccccc21
    6, -8, 16, 15, -5, i, -4, -1
CCOC(=O)c1ccc(NC(=O)Nc2ccc3c(c2)OCCO3)cc1
    51, -10, 6, 2, -14, i, 6, -5
O=C(Nc1ccc(Cl)cc1)NN1CCCCCC1
    -13, x, x, x, -5, x, 0, -1
c1ccc(-c2nnc(-c3ccncc3)nc2-c2ccccc2)cc1
    13, x, -1, 7, x, +, 3, -3

Part of the list above, set out differently:
compound | Env fusion inh | CSC inhib | PABP polyA inh | eIF4H inh | UUG fidelity | Rce1 inh | MT1-MMP act inh | MT1-MMP act inh RFP
Cn1c(=O)c2cn(-c3ccc4c(c3)OCCO4)cc2n(C)c1=O | x | 7 | -6 | -10 | -8 | i | 3 | 2
CCc1cc(=O)oc2c3c(cc(OCC(=O)NCCCC(=O)O)c12)OC(C)(C)CC3 | 0 | 6 | 7 | 3 | 7 | + | 3 | 3
Cc1noc(C)c1NC(=O)Nc1ccc2c(c1)C(=O)N([C@H](C)CO)C[C@H](C)[C@@H](CN(C)C(=O)Nc1ccc3c(c1)OCO3)O2 | -2 | x | x | x | -4 | x | 0 | 3

Later entries:
Each structure is followed by: Env fusion inh, CSC inhib, PABP polyA inh, eIF4H inh, UUG fidelity, Rce1 inh, MT1-MMP act inh, MT1-MMP act inh RFP
NS(=O)(=O)c1ccc(Nc2nc3ccccc3nc2NS(=O)(=O)c2cccc([N+](=O)[O-])c2)cc1
    8, 6, -9, 3, x, i, 3, 2
CC1(Cc2ccc(OC(F)(F)F)cc2)C(=O)Nc2ccc(OC(F)(F)F)cc21 (stereo not given)
    36, x, x, x, -13, x, 0, -1
COCCCNC(=O)CCc1c(C)c2cc3c(C)coc3cc2oc1=O
    -171, -9, -1, 5, -11, i, 1, 1
COc1cccc(CCc2nnc(CCC(=O)NC(C)Cc3cccs3)o2)c1 (stereo not given)
    1, 17, 6, 7, -15, i, 8, 1
CC(=O)Nc1ccc(C2(c3ccc(NC(C)=O)cc3)C(=O)Nc3ccccc32)cc1
    -2, -6, 3, -6, 3, i, 0, -3
O=C1CN(C(=O)COC(=O)CNC(=O)c2ccccc2)c2ccccc2N1
    x, -4, -1, 4, -10, i, 2, 6
CCn1cc(C(=O)N2CC(C)CC(C)C2)c(=O)c2cc(S(=O)(=O)N3CCOCC3)ccc21 (stereo not given)
    -69, -1, 2, -3, -18, i, -1, 1
O=C(O)c1ccc(CNC(=O)C2CCN(S(=O)(=O)c3ccc4c(c3)OCCO4)CC2)cc1
    -5, x, x, x, -6, x, -1, 1
CC1Cc2ccccc2N1C(=O)COC(=O)c1ccc(Br)o1 (stereo not given)
    1, -9, -6, -1, x, i, 3, 0
Cn1c(=O)oc2cc(S(=O)(=O)N3CCCC(C(=O)NC4CCCc5ccccc54)C3)ccc21 (stereo not given)
    2, -13, -4, 5, -4, i, -29, -22
CC(C)CC(C(=O)Nc1oc(-c2ccccc2)c(-c2ccccc2)c1C#N)N1C(=O)c2ccccc2C1=O (stereo not given)
    -27, 13, 5, 6, -7, x, -3, -5
Cn1nnc2c(NCc3ccco3)nccc21
    -92, -4, 9, 3, -18, i, 8, 7
O=C(Nc1cccc(F)c1)c1c(O)c2ccccc2[nH]c1=O
    -21, 8, 7, 0, -1, i, 2, 8
C=CCNC(=O)c1onc(CSc2ccc(F)cc2)c1C(=O)NCC=C
    16, -2, x, x, -14, i, -1, 4
CC(NCc1ccccc1)C1COc2ccccc2O1 (stereo not given)
    x, -2, 12, -8, -8, i, 1, 7
Cc1cccc(-n2c(C)cc(/C=C3\NC(=O)NC3=O)c2C)c1
    -9, 37, -5, -1, x, i, 3, 1
O=C(Nc1cccnc1)OC1CCCC1
    -3, -12, 16, -1, x, i, -4, -1
O=S(=O)(c1ccc(F)cc1)N1CCN(Cc2ccccc2C(F)(F)F)CC1
    -25, -4, -1, 8, -12, x, -4, -3
CCCC(=O)c1c[nH]c(C(=O)N2CCOCC2)c1
    -6, 0, -4, 1, x, i, -2, 2
CN(C)C(CNS(=O)(=O)c1ccc(F)cc1)c1cccnc1 (stereo not given)
    5, -17, 2, 5, -8, i, -1, 3
O=C(CCN1C(=O)COc2ccccc21)N1CCN(c2ccccc2)CC1
    3, -10, 10, -2, x, i, -3, 2
CC(C)C1C(=O)N(Cc2cn(Cc3ccco3)nn2)CCS(=O)(=O)N1Cc1ccc(-c2ccncc2)cc1 (stereo not given)
    -3, x, x, x, -14, x, 18, -1
Cn1c(NC(=O)c2ccco2)c(-c2ccc(Cl)cc2)c(=O)c2ccccc21
    12, 3, -4, -6, -7, i, -5, -5
Cc1nnc(SCC(=O)Nc2cccc(N)c2)n1-c1ccccc1
    0, -4, 1, -8, -13, i, 0, 5
COc1ccccc1C1CC(c2ccccc2)=NN1S(=O)(=O)c1ccccc1 (stereo not given)
    17, x, 9, 2, 7, i, -10, -11
COc1cccc(CNC(=O)c2cc(S(=O)(=O)N3CCCCC3)c[nH]2)c1
    -28, 6, 5, 1, -20, i, 3, -1
S=C(NCc1ccco1)Nc1ccccc1
    -15, x, -5, -1, x, i, 3, -2
COCCN(C(=O)c1csnn1)C(C(=O)NC1CCCC1)c1ccccc1 (stereo not given)
    9, 2, 7, -1, -13, i, 0, 0
CS(=O)(=O)c1ccc(Cl)c(NC(=O)CSc2nnc(-c3cccs3)n2N)c1
    4, -18, x, x, -2, x, -3, 1
C=CC(=O)N(CCC)C(c1ccccc1)c1ccccc1OC (stereo not given)
    10, 10, x, x, -11, i, -7, -5
COc1ccc2[nH]c(C(=O)Nc3ccc(F)cc3Br)cc2c1
    9, 6, -3, -4, 1, i, -4, 5
C/C(Nc1ccccc1C(F)(F)F)=C1/CCOC1=O
    1, x, -2, -6, x, i, 3, 1
COc1cccc(CNC(=O)CSc2nnc3c(n2)[nH]c2ccc(C)cc23)c1
    -7, 4, 9, -4, -15, i, 1, 2
O=C1CCCC(=O)N1c1ccc(F)cc1
    1, -2, 10, 10, -1, i, -2, 3
CCN1CCN(C(=O)c2ccc3c(c2)N(Cc2ccccc2F)C(=O)c2ccccc2S3(=O)=O)CC1
    2, x, 5, -7, -14, i, -4, 0
Cc1nc(N(C)C)c2sc(=S)n(-c3ccccc3)c2n1
    5, -5, 3, 4, -23, i, 6, 4
O=C(c1ccsc1)N1CCN(C(=O)c2cccs2)CC1
    x, -4, 2, 1, -5, i, 7, 6
CCCNC(=O)C1(C)CCCN(Cc2cc3ccccc3o2)C1 (stereo not given)
    1, x, x, x, -19, x, 0, 2
O=C(Nc1cc([N+](=O)[O-])ccc1F)C1CCN(S(=O)(=O)c2cccs2)CC1
    21, -6, x, x, -27, x, 0, 4
CC(C)(C)NC(=O)CN(Cc1ccc2c(c1)OCO2)C(=O)CNS(=O)(=O)c1ccccc1
    1, 6, -6, -4, -9, i, -2, 3
CN(C)C(CNC(=O)c1cc2ccccc2o1)c1ccccc1 (stereo not given)
    -19, x, x, x, -3, x, -5, 0
COC(=O)c1ccc([C@@H](O)[C@H](C)C(=O)CC(=O)OC(C)(C)C)cc1
    -6, 2, -3, -20, -36, i, 3, 7
O=C1NC(=S)N/C1=C/c1ccc(Oc2ccc(C(F)(F)F)cc2[N+](=O)[O-])c(Cl)c1
    x, x, -1, -9, x, i, 4, 4
CCc1ccc(OCC(=O)Nc2ccc(N3CCN(S(C)(=O)=O)CC3)cc2)cc1
    -3, -3, -7, -1, x, i, 2, 3
COc1ccccc1NC(=O)c1ccc(CN2CCOCC2)cc1
    x, 5, -5, -6, 1, i, 4, 6
CC1C(=O)Nc2ccccc2N1C(=O)c1cccc(C(F)(F)F)c1 (stereo not given)
    24, -6, -2, -2, 16, i, -1, 2

Assay outcomes: PubChem, several laboratories

These rows are one share of the data. The share of hits here may be higher or lower than overall.
